# High-throughput results: PubChem BioAssay, National Center for Advancing Translational Sciences (NCATS)
# TSHR ag – TSH receptor (human) agonism; HEK293-CNG-TSHR cells (CNG channel as cAMP sensor), membrane potential dye, cAMP; Potency, µM (highest dose often 57.1 µM), for the others: top-dose activation, hits mostly activators; P16473; 0.48% of 73,000 active; active = well fitted activation curve of enough size with the parental cells flat; inconclusive = any curve in the parental cells; inactive = parental cells flat and receptor cells flat or falling; also: potency is read from the fitted curve at half-maximal effect; % of control where 0% means no effect; weak receptor curves with flat parental cells got no call and are not listed
# Target sequence (P16473 whole entry, looked up): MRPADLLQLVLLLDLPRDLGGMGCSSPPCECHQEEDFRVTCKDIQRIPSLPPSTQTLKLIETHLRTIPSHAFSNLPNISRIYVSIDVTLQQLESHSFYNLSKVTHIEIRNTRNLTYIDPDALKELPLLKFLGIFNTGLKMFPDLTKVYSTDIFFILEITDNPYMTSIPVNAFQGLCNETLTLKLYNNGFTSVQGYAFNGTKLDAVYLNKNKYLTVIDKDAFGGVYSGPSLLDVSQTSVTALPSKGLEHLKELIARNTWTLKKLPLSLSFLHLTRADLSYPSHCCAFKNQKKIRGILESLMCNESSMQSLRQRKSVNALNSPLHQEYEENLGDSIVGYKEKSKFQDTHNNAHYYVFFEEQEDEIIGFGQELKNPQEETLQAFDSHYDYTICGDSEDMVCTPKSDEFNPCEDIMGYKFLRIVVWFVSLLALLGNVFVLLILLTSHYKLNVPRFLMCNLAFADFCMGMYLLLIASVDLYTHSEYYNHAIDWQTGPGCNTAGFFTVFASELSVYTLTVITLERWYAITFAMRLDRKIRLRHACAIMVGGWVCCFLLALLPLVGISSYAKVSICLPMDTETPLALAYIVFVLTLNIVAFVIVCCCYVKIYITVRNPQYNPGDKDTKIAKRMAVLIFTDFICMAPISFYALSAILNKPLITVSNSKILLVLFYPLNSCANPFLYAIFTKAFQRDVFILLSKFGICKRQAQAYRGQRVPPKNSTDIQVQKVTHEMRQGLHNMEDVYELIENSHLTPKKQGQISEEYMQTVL
#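 HEK 293 cells stably expressing TSHR and a cAMP-gated CNG channel; parental CNG-only cells as counterscreen. Cells preloaded 60 min with membrane potential dye plus 100 uM RO 20-1724, then compound 30 min; fluorescence read at 590 nm.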
# AID923 – qHTS Assay for Allosteric/Competitive Inhibitors of Caspase-1: Spectroscopic Profiling in AFC Spectral Region; 1.1% of 75,000 active; Potency, µM (series often up to 57.5 µM), for the others: top-dose fluorescence increase, usual class: activators; compound fluorescence, AFC spectral region (405/520 nm); almost no hit is shown here; active = well fitted activation curve with a large enough effect; inconclusive = small, poorly fitted or top-dose-only effect;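 also: potency is read from the fitted curve at half-maximal effect; 0% is about no effect; scaled to a free AFC standard on each plate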
#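 Titrations up to 57 uM read every 20 sec for 3 min (405/520 nm) with 50 nM caspase 1 and 5 uM Ac-WEHD-AFC, pH 7.5 HEPES buffer. Fluorescence-vs-time intercept gave baseline, scaled against on-plate AFC standard.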
# A488 autofl – A488 region autofluorescence | AID 591 | max dye equivalency, M | compound autofluorescence, A488 spectral region, dye equivalency; hits give high values | 0.1% of 59,000 active; active = above 10 nM dye equivalent; inconclusive = 1 to 10 nM; inactive = 1 nM or less; about half of its hits are not listed in these tables;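 also: highest value over a series up to 38 µM; compound alone in buffer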
#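 Intrinsic compound fluorescence is measured in 100 mM Tris buffer at pH 8.0 following 15 min incubation at room temperature. Intensities at 480 nm excitation/540 nm emission are calibrated to an on-plate A488 concentration series, giving dye-equivalent concentrations.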
# A647 autofl – compound autofluorescence in A647 spectral region | Compound fluorescence, A647 channel (570/671 nm), Tris buffer | max dye-equivalent concentration, M | 59,000 tested, under 10 active | AID 592; active means above 1 µM dye equivalent; inconclusive means 0.1 to 1 µM; inactive means 0.1 µM or less;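 also: values scaled relative to a standard on each plate; highest value over a series up to 38 µM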
#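 Compound fluorescence was measured in 100 mM Tris buffer, pH 8.0, after 15 min at room temperature, using 570 nm excitation and 671 nm emission filters. Signal was normalized to a per-plate Alexa 647 standard curve and expressed as dye-equivalent concentration at each compound concentration.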
# Resorufin fluor – compound fluoresces in the resorufin spectral region; Compound fluorescence, resorufin region 547/598 nm, buffer; hits give high values; max dye-equivalent concentration, M; 0.04% of 59,000 active; AID 588; active = above 10 nM dye equivalent; inconclusive = 1 to 10 nM; inactive = 1 nM or less; a few of its hits are not listed in these tables; also: highest value over a series up to 38 µM
#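 Compounds in 100 mM Tris buffer, pH 8.0, incubated 15 min at room temperature, then read with 547 nm excitation and 598 nm emission filters. Fluorescence was converted to dye-equivalent concentration using an on-plate six-point resorufin standard curve.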
# An asterisk follows results filed as active; i = inactive; ? = inconclusive; . = not tested or not shown; [ ] = dose if it differs, or a comment. An excerpt (hit frequency here may not be typical).
# The first two records (preview)
molecule,TSHR ag,AID923,A488 autofl,A647 autofl,Resorufin fluor
COc1cc(C2=NOC(C(=O)N3CCCCCC3)C2)cc(OC)c1OC (stereo not given),11.0%,2.2%,i,1.95e-08,i
c1ccc(COc2nsnc2N2CCOCC2)cc1,31.6µM*,3.9%,.,.,.

# All compounds of this part, from the first entry:
molecule,TSHR ag,AID923,A488 autofl,A647 autofl,Resorufin fluor
COc1cc(C2=NOC(C(=O)N3CCCCCC3)C2)cc(OC)c1OC (stereo not given),11.0%,2.2%,i,1.95e-08,i
c1ccc(COc2nsnc2N2CCOCC2)cc1,31.6µM*,3.9%,.,.,.
COc1ccc(CNC(=O)C2CCN(S(=O)(=O)c3ccc(-c4nn[nH]n4)cc3)CC2)cc1,4.0%,-0.5%,i,3.7e-09,i
O=C(NCc1ccccc1F)C1CCN(C(=O)NCc2ccccc2)CC1,-3.5%,0.2%,i,1.49e-08,i
Cc1nc2cnc(N3CCOCC3)nc2n(Cc2cccs2)c1=O,4.4%,4.5%,i,1.2e-08,i
CCOC(=O)N1CCN(C(=O)CSc2nnc(Cc3cccn3C)n2CCc2ccccc2)CC1,0.8%,1.4%,i,1.39e-08,i
COc1cc(OC)c(NC(=O)c2ccoc2C)cc1Cl,-1.5%,-1.2%,i,1e-09,i
CC(=O)Nc1ccc(S(=O)(=O)NCc2cn3c(C)csc3n2)cc1,-0.3%[11.4 µM],-1.1%,i,1.88e-08,i
COC(=O)CN(c1nc(C)cc(OC)n1)S(=O)(=O)c1ccc(C)cc1,?,-1.1%,i,1.11e-08,i
Cc1nc2ncnn2c(C)c1CCC(=O)N1CCN(c2ccccn2)CC1,?,0.0%,i,1e-09,i
CC(C)(C)c1ccc(NS(=O)(=O)c2ccc(N)cc2)cc1,10.0%[11.4 µM],3.1%[11.5 µM],i,6.17e-08,i
COC(=O)[C@@H]1[C@@H](O)[C@]2(O)c3ccccc3O[C@]2(c2ccccc2)[C@H]1c1ccccc1,13.5%[11.4 µM],-1.3%[11.5 µM],.,.,.
CC1Cc2ccccc2N1Cc1nc2scc(-c3cccs3)c2c(=O)[nH]1 (stereo not given),-7.7%,0.8%,i,3.46e-08,i
COc1cc2c(C(=O)NC3CCCCCC3)cn(C)c(=O)c2cc1OC,20.5%,0.5%,i,2.92e-08,i
O=C(CSc1ncn[nH]1)NCCCc1ccccc1,0.0%,-2.2%,i,1e-08,i
CC1CCN(c2oc(Cc3cccc4ccccc34)nc2C#N)CC1,?,-2.1%,i,1.37e-08,i
Clc1cccc(Cl)c1COc1ccncc1,9.1%,3.1%,i,1e-09,i
Cc1cccc(N(CC(=O)NCc2ccc3c(c2)OCO3)C(=O)CCC(=O)Nc2ccccn2)c1,6.9%,-0.9%,i,2.13e-08,i
COc1ccc(C2NC(=O)NC(C)=C2C(=O)Nc2cccc(C)c2C)cc1 (stereo not given),-2.4%,4.6%,.,.,.
Cc1ccc(C(C)C)cc1C(=O)CC1(O)C(=O)N(C)c2ccccc21 (stereo not given),.,1.3%,i,1.04e-08,i
CC1CCN(S(=O)(=O)c2ccc(-c3nnc(SCc4cccnc4)o3)cc2)CC1,?,-4.8%,i,8e-09,i
COc1cc(O)c2c(O)c3c(c4c2c1[C@@]1(C4)C(C)=CCCC1(C)C)[C@H](O)[C@@]1(O)CC(=O)C(C(N)=O)=C(O)[C@]1(O)C3=O,5.8%[11.4 µM],5.5%[11.5 µM],i,1e-09,i
CCOc1ccc2nc(NC(=O)CSc3nc4c(c(=O)n(C)c(=O)n4C)n3C(C)C)sc2c1,21.4%,0.4%,i,1.27e-08,i
CCOc1ccccc1CN1CCN(S(=O)(=O)CC)CC1,3.7%,0.0%,i,1e-09,i
N#Cc1cccc(C(c2nnnn2CCc2ccccc2)N2CCN(C3CCCCC3)CC2)c1 (stereo not given),?,1.0%,i,3.53e-08,i
COc1ccccc1C1(O)CC2CCC(C1)N2S(=O)(=O)c1ccc(C(C)=O)cc1 (stereo not given),.,0.6%,i,1.04e-08,i
O=C(CCCn1c(SCC(=O)c2ccc(Cl)cc2)nc2ccccc2c1=O)NCc1ccco1,?,2.7%,i,2.23e-08,i
COc1ccc(/C=N/n2c(SC)nnc2-c2ccccc2)c(OC)c1OC,?,-0.3%,.,.,.
CCC(c1nnnn1C1CCCC1)N(Cc1cccs1)Cc1cc2cccc(C)c2[nH]c1=O (stereo not given),.,0.4%,i,1.78e-08,i
CCOC(=O)c1cncc(NC(=O)c2ccccc2)c1,-2.2%,-1.9%,i,1e-09,i

# (continued)
molecule,TSHR ag,AID923,A488 autofl,A647 autofl,Resorufin fluor
COc1ccc(CCC(=O)Nc2ccc(-c3noc(-c4ccc(OC)c(OC)c4)n3)cc2)cc1,10.3%,0.6%,i,1.2e-09,i
Cc1cc(C(=O)COC(=O)c2csc3c2CCCC3)c(C)n1C,3.9%,-0.3%,i,2.5e-08,i
C=C(C)Cn1c(C(C)NC(=O)CCC)nc2ccccc21 (stereo not given),-3.3%[11.4 µM],-1.5%,i,1e-09,i
CO[C@@H]1COC(=O)CCC[C@@H](C)[C@H](OC)COC(=O)[C@H](Cc2ccccc2)NC(=O)C/C=C\[C@H]1C,2.3%[11.4 µM],6.8%[11.5 µM],.,.,.
N=C1C(c2ccc(Br)cc2)=C(O)C2CCc3ccccc3N12 (stereo not given),?,-1.2%,i,1.22e-08,i
Cn1c(=O)n(CCc2ccccc2)c(=O)c2c1nc1n2CCCN1CCc1ccccc1,-16.5%,-0.5%,i,3.14e-08,i
CCOC(=O)c1ccc(CSc2nnc(-c3ccncc3)n2N)cc1,1.9%,-1.0%,i,8.3e-08,i
COc1ccccc1Cc1nc(-c2ccc(C)cc2)no1,?,1.5%,i,1.3e-09,i
Cc1noc(C)c1C(=O)N1CCC2(CCCN(c3ccccn3)C2)CC1,-2.0%,1.2%,i,1.67e-08,i
CN(C)Cc1ccccc1-c1cc(N(C)C)ncn1,2.8%,-1.4%,i,1.33e-08,i
CCC(C)(C)NC(=O)C(c1cccn1C)N(C(=O)Cn1nnc2ccccc21)c1ccc(F)cc1 (stereo not given),6.0%,0.8%,i,1e-09,i
COC(=O)CSc1nc(C(C)C)nc2ccccc12,?,0.5%,i,2.32e-08,i
O=C(Cn1c(-c2ccc(Cl)cc2)noc1=O)N1CCN(c2ccccc2F)CC1,10.6%,-1.1%,i,2.97e-08,i
CN(C(=O)c1ccc2c(=O)n3c(nc2c1)CCCCC3)c1ccccc1,3.6%,-0.3%,i,2.24e-08,i
COc1ccccc1-n1c(SCC(=O)N2CCCCC2)nnc1-c1ccccc1O,?,1.9%,i,3.9e-09,i
CC(=O)NCC(=O)N(c1ccccc1)C1(C(=O)NC2CCCCC2)CCCCC1,2.5%,2.2%,i,1.65e-08,i
CCOC(=O)CNC(=O)c1cnn2cccnc12,-9.1%,-0.5%,i,6.4e-09,i
Cc1cc(OCC(=O)NCc2nc(-c3ccccc3)no2)c(C)cc1Br,?,0.5%,i,1e-09,i
C[N+](C)(C)CCCSc1nc2ccccc2[nH]1,-0.9%[11.4 µM],0.4%[11.5 µM],i,1.77e-08,i
O=C1CC(c2ccccc2)n2nc(NS(=O)(=O)c3ccccc3)nc2N1 (stereo not given),.,.,i,3.94e-08,i
COC(=O)CCSc1nccn1Cc1ccccc1,-3.1%,3.3%,i,9.2e-09,i
COc1ccc(-c2noc(-c3ccccc3Cl)n2)cc1OC,?,0.6%,i,6.8e-09,i
CCO[C@H](c1cc(OC)cc([N+](=O)[O-])c1OC)[C@H](C)/C=C\CC(=O)OC,12.5%[11.4 µM],-3.1%[11.5 µM],.,.,.
CC(=O)c1cccc(NC(=O)c2ccc(NS(C)(=O)=O)cc2)c1,0.4%,-1.4%,i,2.5e-09,i
COc1ccc(NC(=O)CSc2nnc(-c3ccccn3)n2N)cc1,0.7%[11.4 µM],-1.3%,i,3.58e-08,i
COC(=O)CCC(=O)Nc1ccc(C)cc1OC(=O)CCC(=O)OC,-2.2%,-0.2%,.,.,.
COc1ccc(NC(=O)CSc2nc3c(c(=O)[nH]2)CCC3)cc1OC,?,2.7%,.,.,.
COc1cccc(C(=O)N(Cc2ccco2)Cc2cc3cccc(C)c3[nH]c2=O)c1,28.8%,0.2%,i,1e-09,i
Cc1cccc(NC(=O)C2CCCN(C(=O)Nc3ccccc3)C2)c1C (stereo not given),1.1%,0.5%,i,5.9e-09,i
CCCCNC(=O)C1c2cc(OC)c(OC)cc2C(=O)N(C)C1c1ccc(OC)cc1 (stereo not given),-0.4%,0.8%,i,2.59e-08,i

# (further entries)
molecule,TSHR ag,AID923,A488 autofl,A647 autofl,Resorufin fluor
Cc1cc(C)nc(Sc2nc(C)nc3c2oc2ccccc23)n1,11.9%,-0.2%,i,2.69e-08,i
CN(C)c1nc(OCC(=O)NC(C)(C)C)nc(N(C)C)n1,1.1%,-2.3%,i,3e-09,i
CCc1ccc(-c2nc(CN3CCCC(C(=O)NCCc4ccc(OC)c(OC)c4)C3)c(C)o2)cc1 (stereo not given),4.1%[11.4 µM],-1.4%,i,2.1e-09,i
COc1ccccc1CNC(=O)C1CCN(S(C)(=O)=O)CC1,.,-0.1%,i,3.21e-08,i
COC(=O)CCCCC1SCC(NC(=O)OC)C1NC(=O)OC (stereo not given),1.0%,0.6%,i,1e-09,i
CC1CCCCC1NC(=O)C1CCN(S(=O)(=O)N2CCC3(CC2)OCCO3)CC1 (stereo not given),-3.3%,-0.2%,i,3.2e-09,i
CC(=O)C1=C(O)C(=O)N(C2CCCCC2)C1c1ccccc1 (stereo not given),4.1%,-0.5%,i,5.3e-09,i
CN(C)CCN1C(=O)C(O)=C(C(=O)c2cc3ccccc3o2)C1c1ccc(N(C)C)cc1 (stereo not given),6.4%,-0.5%,.,.,.
CCc1nnc(NC(=O)CSc2nnc(Cc3cccn3C)n2CCOC)s1,-4.2%,-1.3%,.,.,.
C/C(Cl)=C\Cn1c(NCCCn2ccnc2)nc2c1c(=O)n(C)c(=O)n2C,-3.3%[11.4 µM],0.5%,i,3.18e-08,i
CC(C)CNc1nc2c(c(=O)n(C)c(=O)n2C)n1Cc1cccc(Br)c1,.,.,i,9.39e-08,i
CN(CC(=O)NCCc1ccccc1)S(=O)(=O)c1cccs1,4.5%,1.0%,i,1e-09,i
COc1cc(OC)c(OC)cc1CN1CCCC(C(=O)N2CCCCC2)C1 (stereo not given),5.5%,1.7%,i,1e-09,i
CC1=C(C(=O)Nc2ccccc2)C(c2ccccc2)N2C(=O)CSC2=N1 (stereo not given),11.5%,-0.9%,.,.,.
COc1ccccc1CNc1ncncc1-c1cccc(NS(C)(=O)=O)c1,14.2%,0.4%,i,2.56e-08,i
C[N+](C)(C)c1ncnc2c1ncn2[C@@H]1CCCCO1,4.0%[11.4 µM],-1.6%[11.5 µM],i,1e-09,i
COc1ccccc1NC(=O)CC(=O)CSc1nnc(-c2ccc(C)cc2)n1C,-0.3%,0.1%,i,3.6e-09,i
CCOC(=O)N1CCC2(CC1)C(C(=O)C13CC4CC(CC(C4)C1)C3)C2(C#N)C#N (stereo not given),6.5%,1.9%,i,3.9e-08,i
O=S(=O)(Nc1ccc(N2CCCCC2)cc1)c1cccc2cccnc12,5.0%,5.1%,.,.,.
Cc1ccc2oc(-c3ccccc3)c(O)c(=O)c2c1,16.4%,0.6%,i,1.6e-09,i
